Bioassay records: PubChem, several laboratories
PKD1 kinase inh: inhibitors of human PKD1 kinase, biochemical, fluorescence polarization. inhibition, %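 (about 10 µM by stock and volumes)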. PKD1 kinase fluorescence polarization assay. AID 797, 2007. 200,000 tested, 0.056% active. Serine/threonine-protein kinase D1 (Homo sapiens), Q15139;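 active means inhibition of 50% or more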;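 further: controls were vehicle for no effect and a reference inhibitor for full effect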
Target sequence (Q15139 whole entry, looked up): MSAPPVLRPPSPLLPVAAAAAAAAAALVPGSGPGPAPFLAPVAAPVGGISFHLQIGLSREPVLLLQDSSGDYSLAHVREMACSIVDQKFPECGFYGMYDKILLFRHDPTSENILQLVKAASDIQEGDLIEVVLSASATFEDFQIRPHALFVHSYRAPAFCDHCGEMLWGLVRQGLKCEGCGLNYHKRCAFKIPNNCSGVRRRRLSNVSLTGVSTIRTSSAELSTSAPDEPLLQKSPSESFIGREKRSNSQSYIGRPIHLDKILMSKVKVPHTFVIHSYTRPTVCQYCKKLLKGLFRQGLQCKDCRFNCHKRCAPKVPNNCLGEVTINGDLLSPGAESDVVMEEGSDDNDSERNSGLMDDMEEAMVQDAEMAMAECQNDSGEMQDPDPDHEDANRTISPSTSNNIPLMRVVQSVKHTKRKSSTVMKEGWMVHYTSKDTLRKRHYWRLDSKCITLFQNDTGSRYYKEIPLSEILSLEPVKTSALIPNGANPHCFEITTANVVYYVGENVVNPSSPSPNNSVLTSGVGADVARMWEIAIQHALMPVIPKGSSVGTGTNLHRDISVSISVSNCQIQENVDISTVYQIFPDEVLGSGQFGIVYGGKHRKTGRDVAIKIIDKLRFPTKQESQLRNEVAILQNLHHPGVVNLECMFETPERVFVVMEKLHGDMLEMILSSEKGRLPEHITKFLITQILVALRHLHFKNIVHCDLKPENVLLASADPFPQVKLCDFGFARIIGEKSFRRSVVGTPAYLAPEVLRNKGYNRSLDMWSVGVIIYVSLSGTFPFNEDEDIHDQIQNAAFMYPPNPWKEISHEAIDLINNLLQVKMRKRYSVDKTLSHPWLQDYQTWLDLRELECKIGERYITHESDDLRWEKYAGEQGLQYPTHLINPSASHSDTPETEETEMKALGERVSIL
RGS16-Gao HTS: modulators of RGS16 binding to Galphao, primary screen, biochemical, human proteins, multiplexed bead flow cytometry; Regulator of G-protein signaling 16 (Homo sapiens) + Guanine nucleotide-binding protein …; bead-based flow cytometry RGS16-Galphao binding, fluorescence; actives lie on both sides; binding response (% of control), % at 10 µM; 220,000 tested, 0.38% active;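 active means below 25% or above 175%, edge rows of some plates excepted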;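 further: Galphao activated by GDP with aluminum fluoride before binding; 100% = wells without compound and 0% = beads without RGS; some results beyond the cut were filed as inactive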
HSV replic up: enhancers of HSV replication in host cells, fold increase, host cell viability | maximum fold increase | 220,000 tested, 0.005% active | HSV replication augmentation in cells;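 active means peak rise of 1.5-fold or more in the series; tested in PC3 cells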;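 further: first round at 10 µM; read as green reporter fluorescence; hits show the peak of a series up to 25 µM; 1 = signal of infected wells without compound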
GALR2 ag: GALR2 receptor agonists, primary screen, cell-based; Galanin receptor type 2 (Homo sapiens), O43603; GALR2-expressing cells, agonist activation read-out; activation, %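 (tested at 5 µM)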; 140,000 tested, 0.48% active;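 active means above mean plus 3 SD of all compounds, about 5% in these data, not always enough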;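 further: 0% = vehicle buffer wells and 100% = reference agonist at full effect; tested in CHO reporter cells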
INS promoter inh: inhibitors of insulin promoter-driven GFP, primary screen, imaging, TRM-6 cells (human fetal islet line), eGFP reporter, cell count. inhibition, % at 2 µM. 130,000 tested, 0.9% active. AID 1273, 2008. reporter expression induced with tamoxifen;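 active means inhibition above the mean plus 3 SD, with well images judged a real hit on visual review, cut at about 60% in these data, passing the limit was not always enough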
INS promoter inh cell count: further read-out of INS promoter inh, marked with its call; normalized cell count, %; measured here: cell count, toxicity; reference of the scale not given here;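 cells exposed to compound for 48 h; stained nuclei by imaging scaled within each plate; lower means fewer cells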
HSV replic up primary fold: second read-out of HSV replic up, no call of its own (marks repeat the call); fold increase; compound at 10 µM; measured here: primary screen fold increase 10 uM; tested in PC3 cells;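 GFP signal in the first replicate; 1 = infected wells without compound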
* marks the source's active call; other numbers are inactive results; i = inactive; · = no result given.

SMILES	PKD1 kinase inh	RGS16-Gao HTS	HSV replic up	HSV replic up primary fold	GALR2 ag	INS promoter inh	INS promoter inh cell count
O=C(CN1C(=O)CSc2ccccc21)NC1CCCC1	5.9	122.2	·	·	-1.0	·	·
Cc1oc(=O)c(NC(=O)c2ccccc2)cc1C(N)=O	-1.3	97.9	i	0.98	·	·	·
COc1ccccc1N1CCN(C(=O)C2CCN(S(=O)(=O)c3ccc(F)cc3)CC2)CC1	·	108.0	i	0.8	·	·	·
CN(C)S(=O)(=O)c1ccc(Cl)c(NC(=O)CN2CCN(Cc3ccc4c(c3)OCO4)CC2)c1	·	100.8	i	0.9	·	·	·
COc1ccc(NC2CS(=O)(=O)CC2NCc2ccccc2)cc1 (centres undefined)	-7.4	103.0	i	1.03	-1.6	-67.4	106.7
CC(C)(C)n1nc2c(c1NC(=O)c1ccccc1F)CS(=O)C2 (centres undefined)	-1.6	101.2	i	0.93	-2.6	·	·
Cn1c(Cc2cccs2)nnc1SCC(=O)N1CCCc2ccccc21	-3.1	240.2	i	1.09	-2.1	-3.6	94.5
O=C1CN(C(=O)COc2ccc(F)cc2Cl)c2ccccc2N1	·	103.0	i	1.16	·	·	·
CCC(C)(C)n1nnnc1C(c1cc2ccc(OC)cc2[nH]c1=O)N1CCc2ccccc21 (centres undefined)	-3.5	105.0	i	1.13	-1.4	·	·
Cc1nn(Cc2ccccc2)c(C)c1NC(=O)CCCn1nc([N+](=O)[O-])c(Cl)c1C	-7.9	100.9	i	0.99	-0.5	0.0	39.5
CCOP(=O)(c1ccc(N(C)C)cc1)C(O)c1ccncc1 (centres undefined)	·	99.8	i	0.94	·	·	·
Cn1nc(-c2ccccn2)nc2c(=O)n(C)c(=O)nc1-2	·	86.8	i	0.59	·	·	·
CNc1nc(Sc2ccccc2)cc(C(F)(F)F)n1	2.6	108.7	i	0.62	-0.8	23.5	121.4
COc1ccc(/C=N/N=C2/CC(C)(C)Cc3n[nH]c(=O)cc32)cc1	3.2	100.9	i	0.93	·	·	·
CCCN(CCC)c1cc(Cl)nc(N)n1	-2.8	106.0	i	0.97	·	-45.5	139.9
CC(=O)Nc1cccc(/C(C)=N/NS(=O)(=O)c2ccc(C)cc2)c1	0.7	109.4	i	1.03	·	10.0	74.3
CCOc1ccccc1C(=O)N(Cc1cccs1)C1CCS(=O)(=O)C1 (centres undefined)	11.8	98.4	i	1.01	-0.8	-7.7	156.8
CN1C=CC=C/C1=C1/N=C(c2ccccc2)OC1=O	-4.2	96.0	i	0.97	·	·	·
COc1ccc(S(=O)(=O)Nc2nnc(CC(C)(C)C)s2)cc1	-3.4	108.8	i	1.02	·	·	·
CCN(Cc1ccncc1)C(=S)Nc1c(C)cccc1C	-0.6	104.0	i	1.04	-1.4	·	·

Reprinted from the listing for reference:
SMILES	PKD1 kinase inh	RGS16-Gao HTS	HSV replic up	HSV replic up primary fold	GALR2 ag	INS promoter inh	INS promoter inh cell count
CCOP(=O)(c1ccc(N(C)C)cc1)C(O)c1ccncc1 (centres undefined)	·	99.8	i	0.94	·	·	·
Cn1nc(-c2ccccn2)nc2c(=O)n(C)c(=O)nc1-2	·	86.8	i	0.59	·	·	·
CNc1nc(Sc2ccccc2)cc(C(F)(F)F)n1	2.6	108.7	i	0.62	-0.8	23.5	121.4
COc1ccc(/C=N/N=C2/CC(C)(C)Cc3n[nH]c(=O)cc32)cc1	3.2	100.9	i	0.93	·	·	·
CCCN(CCC)c1cc(Cl)nc(N)n1	-2.8	106.0	i	0.97	·	-45.5	139.9
CC(=O)Nc1cccc(/C(C)=N/NS(=O)(=O)c2ccc(C)cc2)c1	0.7	109.4	i	1.03	·	10.0	74.3
CCOc1ccccc1C(=O)N(Cc1cccs1)C1CCS(=O)(=O)C1 (centres undefined)	11.8	98.4	i	1.01	-0.8	-7.7	156.8

Single entries from the list:
CCOP(=O)(c1ccc(N(C)C)cc1)C(O)c1ccncc1 (centres undefined) | RGS16-Gao HTS: 99.8
COc1ccc(/C=N/N=C2/CC(C)(C)Cc3n[nH]c(=O)cc32)cc1 | RGS16-Gao HTS: 100.9

Going on with the list:
SMILES	PKD1 kinase inh	RGS16-Gao HTS	HSV replic up	HSV replic up primary fold	GALR2 ag	INS promoter inh	INS promoter inh cell count
CCOc1ccc2nc(SCC(=O)NC(=O)C(C)C)sc2c1	0.4	109.6	i	0.9	·	100.0*	0.0*
CC(=O)c1sc(NC(=O)c2cc(-c3ccccc3)nn2-c2ccccc2)nc1C	-15.5	119.5	i	0.81	-0.2	25.0	114.3
CCc1ccc(NC(=O)CSC2=C(C#N)C(c3ccco3)C3=C(CCCC3=O)N2)cc1 (centres undefined)	-6.2	99.6	i	0.88	-0.1	-7.7	53.4
NS(=O)(=O)c1ccc(N/C=C/C(=O)c2ccc(Br)cc2)cc1	-2.0	92.2	i	1.06	1.6	35.3	43.3
COC1=CC(=O)CC(C)C12Oc1cc(OC)cc(OC)c1C2=O (centres undefined)	·	93.3	i	0.64	·	·	·
Cn1cc(C(=O)CCl)c2ccccc21	-1.2	103.6	i	0.98	·	·	·
N#CC1=C2SCC(O)(c3ccccc3)N2C(=O)CC1c1ccccc1F (centres undefined)	-2.5	100.5	i	0.74	-1.5	-233.3	68.0
Cc1ccc(NS(=O)(=O)c2ccc3[nH]c(=O)sc3c2)cc1	2.5	101.8	i	1.08	·	·	·
Cc1cccc(CC2SC(N)=NC2=O)c1 (centres undefined)	-3.4	99.0	i	0.93	·	·	·
C=CCn1c(SCC(=O)Nc2nnc(CC)s2)nnc1-c1ccncc1	2.5	99.7	i	1.12	·	·	·
Cc1cc(SCc2ccccc2)nc(=O)[nH]1	8.7	107.6	i	1.04	-1.9	·	·
Cc1nn(C)cc1CN(C)C(=O)c1cc(COc2ccc(F)cc2F)on1	-2.6	86.2	i	0.93	·	40.0	71.3
CN(C)CCCN1C(=O)C(=O)/C(=C(/O)c2ccc3c(c2)OCO3)C1c1cccnc1 (centres undefined)	-5.1	·	·	·	-2.4	-80.0	122.9
Cc1ccsc1/C=N/NC(=O)C1CC(=O)N(c2ccccc2)C1 (centres undefined)	-6.3	105.9	i	1.28	-0.4	14.3	92.8
COc1ccc(/C=C/C=C2\NC(=S)NC2=O)cc1	3.9	58.9	i	1.02	·	·	·
O=C1Nc2ccccc2C(=O)N2CCCCC12 (centres undefined)	0.0	12.7	i	0.99	·	·	·
Cc1ccc(C(=O)N2CCN(C(=O)CN3CCOCC3)C2)cc1	-7.3	106.2	i	1.06	-1.1	3.6	105.1
CCOC(=O)c1snc(C(=O)NC2CCCCC2)c1N	-9.3	47.4	i	0.92	-1.4	·	·
O=C(Cc1ccccc1)Nn1c(-c2ccccc2)nc2ccccc2c1=O	-2.7	101.9	i	0.93	-0.5	60.0	122.5
COc1ccc(-c2ccc(NCCC3=CCCCC3)nn2)cc1OC	-13.3	107.9	i	0.84	1.1	·	·
CCOC(=O)/C(C#N)=C\c1cn(C)c2ccccc12	9.7	99.7	i	1	·	·	·
CSc1ccccc1NC(=O)CN(C)C(=O)c1cccc(S(=O)(=O)N(C)C)c1	5.5	100.7	i	1	·	·	·
Cc1c(Cl)ccc2c1NC(=O)[C@]21N[C@@H](CCC(N)=O)[C@H]2C(=O)N(c3ccc(F)cc3)C(=O)[C@H]21	-8.0	96.1	i	1.22	-0.2	50.0	118.6
Cc1ccc(C)n1-c1nc(=S)[nH][nH]1	-2.5	100.6	i	0.94	-1.3	39.3	77.4
O=C1CS/C(=C\[N+](=O)[O-])N1c1ccc(OC(F)(F)F)cc1	-8.1	98.8	i	0.86	-0.9	·	·
O=Cc1cc(N=Nc2cccc(C(=O)O)c2)ccc1O	0.7	90.5	i	0.92	·	-22.2	64.0
O=C(c1sc2cccc(F)c2c1Cl)N1CCN(c2ncccn2)CC1	-13.5	29.3	i	0.51	-0.5	-3.6	58.1
CC(N=Cc1c(O)c2ccccc2oc1=O)C(=O)O (centres undefined)	14.1	102.4	i	1.11	·	·	·
CC(C)C1Oc2cc3oc(=O)ccc3cc2C1=O (centres undefined)	-9.3	5.7*	i	0.99	·	·	·
Cc1cc(C)c(C)c(S(=O)(=O)ON2C(=O)c3ccccc3C2=O)c1C	2.6	93.5	i	0.97	-0.9	·	·
O=C(O)/C(=C\c1ccco1)NC(=O)c1ccccc1	-2.6	110.6	i	1.02	0.1	-16.0	105.7
O=C(CN(Cc1ccco1)C(=O)c1cccc(Cl)c1)Nc1c(Cl)cc(Cl)cc1Cl	1.8	94.2	i	0.99	-0.8	-33.3	88.3
Cc1cc(NC(=O)CCCC(=O)N(c2ccccc2)C(C(=O)NC2CCCCC2)c2cccs2)no1 (centres undefined)	-4.3	123.1	i	0.96	-3.4	-29.0	103.2
CC(/C=C1\SC(=S)N(CCCC(=O)Nc2ccc(C(=O)O)c(O)c2)C1=O)=C\c1ccccc1	-2.5	114.0	i	0.98	-1.5	·	·
O=C(NC1CC1)C1CCCN(C(=O)Nc2ccc(F)cc2)C1 (centres undefined)	-1.1	123.2	·	·	-1.4	-15.4	81.1
Cc1cc(=O)oc(C)c1C(=O)NCc1cccnc1	-1.8	103.8	i	0.87	-3.7	40.0	73.6
O=C(NCCc1ccc(Cl)cc1)C1CCC(=O)N1C1CCCC1 (centres undefined)	-9.1	99.2	i	0.91	0.1	-15.6	107.1
Cc1cc(NC(=O)c2cccs2)ccc1NC(=O)Cc1ccccc1	0.6	96.8	i	0.97	·	30.8	116.0
Cc1ccc(CSc2nnc(-c3cccnc3)o2)cc1	3.6	72.3	i	0.73	-0.3	-25.0	123.8
CCC1CCCCN1C(=O)c1ccccc1OC1CCN(S(C)(=O)=O)CC1 (centres undefined)	-0.4	95.0	i	0.98	·	·	·
CC(C)n1c(C(F)(F)F)nc2cc(C(=O)N3CCCCC3)ccc21	·	101.9	i	1.03	·	·	·
Cc1ccnc(NS(=O)(=O)c2ccc(CC(C)C)cc2)c1	-2.9	100.0	i	1.01	-1.2	26.9	123.0
CCCNC(=O)c1cc(-c2ccc(OC)cc2)on1	-2.8	104.0	i	1.18	-1.2	-40.0	136.3
COc1cc(/C=C2\C(=O)ON=C2c2ccccc2)cc(Cl)c1O	-8.9	96.7	·	·	·	·	·
Cc1cc(C)nc(SCC(=O)NN=C2CCCC2)n1	-3.8	94.1	i	0.93	·	-35.3	76.6
NCC[C@H](O)C(=O)N[C@@H]1C[C@H](N)[C@@H](O[C@H]2O[C@H](CN)[C@@H](O)[C@H](O)[C@H]2O)[C@H](O)[C@H]1O[C@H]1O[C@H](CO)[C@@H](O)[C@H](N)[C@H]1O	-7.9	100.7	·	·	-0.6	22.7	125.7
NS(=O)(=O)c1ccc(CCNC(=O)C2CCCN(S(=O)(=O)c3cccnc3)C2)cc1 (centres undefined)	-11.4	102.7	i	0.86	-2.4	·	·
Cc1nnc(Sc2nc3c(c(=O)n(C)c(=O)n3C)n2Cc2ccccc2Cl)s1	-1.7	·	i	0.98	-0.8	22.2	96.7
O=C1CC(N2CCN(c3ccccn3)CC2)C(=O)N1c1ccc(F)cc1 (centres undefined)	-4.0	97.7	i	0.97	·	i	96.8
Cc1ccc(-c2nnc(SCc3ccc(C#N)cc3)n2Cc2ccco2)cc1	-12.1	95.4	i	1.01	-4.7	-2.9	144.2

Carrying on:
SMILES	PKD1 kinase inh	RGS16-Gao HTS	HSV replic up	HSV replic up primary fold	GALR2 ag	INS promoter inh	INS promoter inh cell count
COc1c(/C=N/NC(=O)c2ccccc2O)c(CCN(C)C(C)=O)cc2c1OCO2	1.7	60.4	i	0.97	1.3	2.0	104.1
CN(C)CCNC(=O)c1c(CSc2ccccc2)noc1C(=O)NCc1ccccc1	·	100.6	i	0.68	·	·	·
COc1ccc(OC)c(NC(=S)N2CCN(Cc3ccccc3)CC2)c1	-2.3	104.5	i	0.98	·	·	·
CCOP(=O)(OCC)C(Nc1cc(Cl)cc(Cl)c1)c1cccc(O)c1 (centres undefined)	3.5	97.7	i	0.97	·	-5.3	140.1
COc1ccc(C2c3[nH]c4ccccc4c3CCN2C(=O)c2cc3ncccn3n2)c(F)c1 (centres undefined)	-6.8	101.1	i	0.88	·	4.3	126.2
CCCCOC(=O)c1ccc(-c2ccc(/C=N/NC(=S)NCC)o2)cc1	-1.2	95.6	i	0.95	6.0	12.7	170.1
COc1ccc(Oc2cc(C)c3ccccc3n2)cc1	-1.4	99.0	i	0.91	-2.1	0.0	48.9
COc1ccccc1N(C)S(=O)(=O)c1ccc(C(=O)OCC(=O)c2c[nH]c3ccccc23)cc1	1.0	103.6	i	0.98	0.3	-16.7	61.9
Cc1cnc(CN2CCc3c([nH]c4ccccc34)C2C2CCCCC2)[nH]1 (centres undefined)	-0.5	101.7	i	1	·	-84.6	77.6
